# Compound activity from PubChem.
# HPGD inh – inhibitors of human 15-hydroxyprostaglandin dehydrogenase (HPGD) | P15428 | hit rate 4.3% among 150,000 | Potency, µM, for the others: at the highest dose activity change, negative = inhibition, actives largely listed as inhibitors | purified HPGD, NADH fluorescence kinetic, PGE2 substrate | AID 894; active = well fitted inhibition curve with a large enough effect (not every such curve was filed as active); inconclusive = small, poorly fitted or top-dose-only effect, or another doubt; inactive = no such curve, though single readings can be large or run the other way;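 also: top concentration of the series not given in the record; plate controls included wells without enzyme; inactives centre near -10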
# Target sequence (P15428 whole entry, looked up): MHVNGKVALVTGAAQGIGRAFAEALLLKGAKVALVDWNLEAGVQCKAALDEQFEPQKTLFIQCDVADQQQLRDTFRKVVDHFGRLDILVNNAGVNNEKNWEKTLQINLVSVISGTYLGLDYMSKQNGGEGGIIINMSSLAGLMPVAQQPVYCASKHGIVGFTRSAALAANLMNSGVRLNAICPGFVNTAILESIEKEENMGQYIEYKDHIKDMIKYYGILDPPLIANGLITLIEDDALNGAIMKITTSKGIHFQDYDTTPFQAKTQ
#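 20 nM HPGD preincubated 15 min at room temperature with compound in 50 mM Tris-HCl pH 8, 0.01% Tween 20. Started with 1 mM NAD+ and 30 uM prostaglandin E2; NADH fluorescence (360/450 nm) read 5 times over 30-s intervals, last minus first.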
# The depositor's hits bear a star; ? = inconclusive; & = joins results of further samples. % is scaled to controls: 0 for no effect and ±100 for the full control effect; potency is read from the fitted curve at half-maximal effect. These rows are one share of the data, so the mix of outcomes need not match the whole.
HPGD inh	canonical_smiles
-2.1%	Cc1ccc(-c2nnn(CCOc3cccc(Br)c3)n2)cc1
-7.2%	Cc1cc(C)n(S(=O)(=O)c2cccc(Cl)c2Cl)n1
-17.2%	COc1cccc(/C=N/NC(=O)CCn2nnc3ccccc32)c1
-2.8%	COC(=O)c1nnn(CC(=O)Nc2cccc(Cl)c2)c1C(=O)OC
-17.7%	Cc1ccc(Cn2c(C(=O)NCCCN3CCOCC3)cc3sccc32)cc1
-8.4%	CCOC(=O)N1CCC(n2c(=S)[nH]c3ccccc3c2=O)CC1
-8.0%	Cc1ccc(S(=O)(=O)NCCC2(C(C)C)CCOC(C)(C)C2)cc1 (stereo not drawn)
-4.6%	COc1ccc(NC(=O)C(=O)NCCC2=CCCCC2)c(OC)c1
-3.0%	O=[N+]([O-])c1ccc(Sc2nccn2Cc2ccccc2)cc1
-10.3%	O=C(c1cccc(F)c1)N1CCN(c2cc(N3CCCCC3)c(F)cc2[N+](=O)[O-])CC1
-2.9%	Cc1cc(C)n2nnnc2c1C#N
-2.8%	COC(=O)c1sccc1NC(=O)CN(C)NS(=O)(=O)c1ccc(F)cc1

# The list continues.
HPGD inh	canonical_smiles
?	Cc1nn(CCC(=O)NNC(=S)Nc2cccc(Cl)c2)c(C)c1[N+](=O)[O-]
-22.9%	CCOC(=O)C1=C(C)NC(C)=C(C(=O)OCC)C1C
?	CCc1nnc(SCc2cn3c(C)cc(C)nc3n2)n1N
-14.7%	O=C(CCc1ccccc1)NC(=S)Nc1cc(C(F)(F)F)ccc1N1CCOCC1
14.1µM*	CC(C)CC(=O)NC(=S)Nc1ccc(NC(=O)c2ccco2)cc1
?	CCc1cccc2c(=O)c(C(=O)NCCN3CCOCC3)c[nH]c12
-14.2%	CCC(=O)N1CCN(c2ccccc2NC(=O)c2ccc(OC)c(Cl)c2)CC1
-1.0%	O=[N+]([O-])c1ccc(Cl)c(CN2CCSCC2)c1
-16.2%	COc1ccc(NC(=O)N2CCC(c3nc(-c4cccs4)no3)CC2)cc1
-7.0%	Cn1ncc2c(Cl)ncnc21
-7.4%	CCc1ccc(NC(=O)c2ccc(C3SCC(=O)N3CCc3ccccc3)cc2)cc1 (stereo not drawn)
-23.6%	COc1ccccc1CCNC(=O)c1cnccn1

# (more compounds)
HPGD inh	canonical_smiles
-8.3%	O=C(Cn1cc([N+](=O)[O-])cn1)Nc1ccccn1
-12.3%	CCCN(CCC)S(=O)(=O)c1ccc(C(=O)N2CCC(=O)c3ccccc32)cc1
-8.8%	O=C(c1ccco1)N1CCN(C(=O)C2CCCN(S(=O)(=O)Cc3ccccc3)C2)CC1 (stereo not drawn)
2.6%	CC1CCCN(c2nc3c(c(=O)n(C)c(=O)n3C)n2CCSc2nc3ccccc3o2)C1 (stereo not drawn)
?	CCNc1ncc2nc(-c3ccccc3)c(=O)n(Cc3ccc(F)cc3)c2n1
-5.5%	CCOC(=O)c1c(NC(=O)c2cc(-c3ccc(Cl)s3)nc3ccccc23)sc(C(N)=O)c1C
-7.7%	CCCC(=O)N(Cc1cc2cc(C)ccc2[nH]c1=O)c1ccccc1OC
0.2%	CN1CCCN=C1/C=C\c1cccs1
-7.8%	COc1ccc(NC(=O)c2ccc3c(=O)n(Cc4ccco4)c(=S)[nH]c3c2)c(OC)c1
-8.5%	CCOc1ccc(-n2c(C)cc(/C=N\NC(=O)CC(=O)NC3CCCCC3)c2C)cc1
-5.2%	CC(=O)Nc1ccc(S(=O)(=O)N2CCN(S(=O)(=O)N3CCCCCC3)CC2)cc1
-11.4%	COc1ccc(C(=O)COC(=O)CCN=C2NS(=O)(=O)c3ccccc32)cc1OC

# Later entries
HPGD inh	canonical_smiles
-3.1%	COC(=O)C(CCCCNC(=O)OCc1ccccc1)NC(=O)CN (stereo not drawn)
-7.3%	CCOC(=O)c1cnc(Nc2nc3ccccc3o2)nc1CSC(=S)N(CC)CC
-6.5%	C(=N\Nc1nn[nH]n1)/c1ccccc1
-4.7%	O=C(NC1CCCCC1)OCCN1CCN(Cc2ccccc2)CCC1=O
-4.3%	Cc1cc2c(cc1C)CSC(c1ccccc1OC(=O)C(C)(C)C)SC2
3.1%	OC(CNCC1CCCO1)Cn1c2ccc(Br)cc2c2cc(Br)ccc21 (stereo not drawn)
?	O=C(CSc1nnc2ccccn12)N1CCc2ccccc2C1
-0.8%	Cc1nc2ccccc2n1CC(O)COC1CCCCC1 (stereo not drawn)
-7.2%	CC1CC(C)CN(S(=O)(=O)c2cccc(C(=O)OCCN3CCCC3=O)c2)C1 (stereo not drawn)
-9.7%	CCOc1ccc(NC(=O)CN(C)CC(=O)Nc2cc(Cl)ccc2C#N)cc1OCC
?	CCC(=O)Nc1nnc(-c2ccncc2)s1
-13.6%	Cc1ccc(C(=O)NCC(=O)NCC(=O)OCC(=O)c2ccc([N+](=O)[O-])cc2)cc1

# 4 records drawn at random from the list so far, as already listed:
HPGD inh	canonical_smiles
-0.8%	Cc1nc2ccccc2n1CC(O)COC1CCCCC1 (stereo not drawn)
-7.2%	CC1CC(C)CN(S(=O)(=O)c2cccc(C(=O)OCCN3CCCC3=O)c2)C1 (stereo not drawn)
?	O=C(CSc1nnc2ccccn12)N1CCc2ccccc2C1
-4.7%	O=C(NC1CCCCC1)OCCN1CCN(Cc2ccccc2)CCC1=O

# Carrying on:
HPGD inh	canonical_smiles
-27.4%	Nc1ccc(C2CCCc3nonc32)c2nonc12 (stereo not drawn)
-11.8%	Cc1cccc2sc(N(CCCN(C)C)C(=O)CCc3ccccc3)nc12
-13.3%	Cc1nc(SCC(=O)N(C)Cc2ccco2)c2c(C)c(C)sc2n1
?	Cc1ccc(CNC(=O)CSc2c3c(nc4cc(Cl)ccc24)CCCC3)o1
-5.7%	CC1(C(=O)O)COC(c2ccc([N+](=O)[O-])cc2)OC1 (stereo not drawn)
-6.4%	COc1cc(C(c2c(C)[nH][nH]c2=O)c2c(C)[nH][nH]c2=O)ccc1OCc1ccc([N+](=O)[O-])cc1
-17.8%	COc1c(N)c2ccccc2[nH]c1=O
-21.0%	O=C(Nc1nc(-c2ccc(S(=O)(=O)N3CCCC3)cc2)cs1)C1COc2ccccc2O1 (stereo not drawn)
-7.0%	CCN1CCN(C(=O)CN(CC)S(=O)(=O)c2ccc(Cl)cc2)CC1
-15.2%	CCN(CC)C(=O)CN(C)S(=O)(=O)c1cccc2nsnc12
?	O=C(COC(=O)c1c2ccccc2cc2ccccc12)Nc1ncc(C(F)(F)F)cc1Cl
0.6%	C=CCN1c2ccccc2[C@]23C[C@@H](C(=O)OC)N(C(C)=O)C2=NC(C(=O)OC)=C(C(=O)OC)[C@H]13

# (list continues)
HPGD inh	canonical_smiles
-1.4%	COc1ccc(OCc2cccc(C(=O)Nc3cc(C)on3)c2)cc1
-7.8%	Cc1nc(N/C(N)=N/S(=O)(=O)c2ccc([N+](=O)[O-])cc2)nc2ccccc12
-10.6%	COc1ccc(-c2csc(N(CC3CCCO3)C(=O)c3ccc(C)cc3)n2)cc1 (stereo not drawn)
-6.7%	CCOC(=O)c1c(NC(=O)Cn2c(C)nc3ccccc32)sc2c1CCC2
-14.0%	COC1C/C(=N\O)C2OC(c3ccccc3)OCC2O1 (stereo not drawn)
-3.7%	CC(C(=O)NCCN1CCOCC1)c1ccc([N+](=O)[O-])cc1 (stereo not drawn)
3.2%	Cc1ccc(S(=O)(=O)NCC(=O)N2CCC(C)CC2)cc1
-7.7%	O=C(CSc1nnc(-c2ccc3c(c2)OCCO3)o1)NC1CCCCC1
-9.2%	CCCc1cc(=O)n2[nH]c(NCc3ccc(Cl)cc3Cl)nc2n1
-7.7%	Cc1ccccc1OCC(=O)Nc1ccc(C(N)=O)cc1
-10.5%	CCCC1CCC(C(=O)Nn2cnc3ccccc3c2=O)CC1 (stereo not drawn)
?	CC(=O)Nc1ccccc1-c1nc2ccc(C(=O)N3CCN(c4ccccc4)CC3)cc2[nH]c1=O

# Continued.
HPGD inh	canonical_smiles
?	COc1ccc(NC(=O)CSc2nnc(NC(=O)c3ccc(S(=O)(=O)N4CCOCC4)cc3)s2)cc1
-7.9%	O=C(COC(=O)c1ccc2c(c1)C(=O)N(Cc1ccncc1)C2=O)Nc1ccccc1[N+](=O)[O-]
-1.5%	CC(C)(C)NC(=O)C(c1ccncc1)N(C(=O)CNC(=O)c1ccco1)c1ccc2c(c1)OCO2 (stereo not drawn)
-13.9%	O=C(c1ccco1)N1CCC2(CCCN(c3ncccn3)C2)CC1
-14.9%	CC(C)(C)CC(C)(C)c1ccc(O)c(C[N+](C)(C)[O-])c1
-5.3%	Cn1c(NC(=S)Nc2ccccc2)nc2ccccc21
-4.6%	CC(C)(C)C1CCC(=NNc2ncc(C(F)(F)F)cc2Cl)CC1 (stereo not drawn)
-15.9%	Cc1ccn(CC(=O)N/N=C/c2cc([N+](=O)[O-])ccc2O)n1
-9.2%	CC1=NC2(CCCc3c2no[n+]3[O-])N(O)C1(C)C (stereo not drawn)
-18.5%	CCN1CCN(c2cc(C)c3cc(NC(=O)c4cnccn4)ccc3n2)CC1
-10.6%	CC(=O)Nc1cccc(NC(C)=O)n1
?	Brc1ccc(CSc2ncnc3nc[nH]c23)cc1

# The list continues:
HPGD inh	canonical_smiles
-9.4%	N#CC1=C(N)OC2=C(CCc3ccccc32)C1c1ccccc1 (stereo not drawn)
-18.6%	CC(C)(C)c1ccc(C(=O)c2c[nH]c(C(=O)NCc3cccnc3)c2)cc1
0.2%	COC(=O)C1CCN(C(=O)COc2ccc(Cl)cc2)CC1
5.5%	Cc1ccccc1NC(=O)C1CC(=O)N(c2ccccc2F)C1 (stereo not drawn)
-0.8%	Cc1ccc(C)c(CN2C(=O)C(C)Oc3ccc(C)cc32)c1 (stereo not drawn)
?	Cc1cccc2nc(=S)n(C(=O)c3ccco3)n12
-0.7%	Cc1c(NS(=O)(=O)c2ccccc2)c(=O)n(-c2ccccc2)n1C
-4.1%	CSc1ccc(NC(=O)CC(C)=O)cc1
-10.2%	CCNCc1cc(OCC)c(OCC(=O)NCCc2ccccc2)cc1Cl
-9.4%	Clc1ccc(-c2csc(N3CCSCC3)n2)cc1
-8.1%	CCC(C)NC(=O)COc1ccccc1[N+](=O)[O-] (stereo not drawn)
-5.5%	COC(=O)CSc1nnc(CNc2ccc(Cl)cc2)n1-c1ccccc1

# New compounds follow.
HPGD inh	canonical_smiles
-18.0%	O=C(NCc1cccs1)c1noc2c1CCCC2
-2.7%	CCCCC1=CC2=CC(=O)C(C)(OC(=O)CCC(=O)OC)C(=O)C2=CO1 (stereo not drawn)
-1.1%	CS(=O)(=O)N1CC(C(=O)NN)Oc2ccc(Cl)cc21 (stereo not drawn)
-12.8%	Nc1nc2c(c(=O)[nH]1)N(C=O)C(CNc1ccc(C(=O)NC(CCC(=O)O)C(=O)O)cc1)CN2 (stereo not drawn)
-5.3%	CC(NCc1ccc(-c2ccccc2)cc1)C(O)c1ccccc1 (stereo not drawn)
-15.3%	N=c1c(-c2nc3ccccc3[nH]2)cc(C(=O)c2ccco2)nn1-c1ccccc1
-23.9%	O=C(c1ccc2[nH]c3c(c2c1)CCCC3)N1CCN(c2ccc(F)cc2)CC1
-19.4%	CC(C(=O)NC1CCCC1)N(Cc1ccc2c(c1)OCO2)C(=O)c1snc(C(N)=O)c1N (stereo not drawn)
-11.6%	O=C(CNC(=O)c1cccs1)c1ccc(F)cc1
-1.7%	COCc1c(C(=O)OCc2nc(N)nc(Nc3ccccc3C)n2)oc2ccccc12
-12.5%	COC(=O)[C@H](C)NC(=O)COc1ccccc1
11.2µM*	C=CCSc1nnc(-c2ccc(Cl)cc2Cl)o1

# Next part
HPGD inh	canonical_smiles
?	O=C(COc1ccccc1F)NC1CC1
-14.2%	CCSc1ncc(/C=N/Nc2ccccc2)n1C
?	Cc1ccc(C)c2nc(SCC(=O)N3CCCc4ccccc43)c(C#N)cc12
-20.8%	CCCCN(CCCC)C(=O)CN(C)S(=O)(=O)c1ccc2c(c1)n(C)c(=O)c(=O)n2C
-22.3%	Cc1ccc(C(=O)COC(=O)CNC(=O)Cc2ccccc2)cc1[N+](=O)[O-]
-19.0%	O=C(O)CSc1nnc(Cn2c(=O)sc3ccccc32)n1-c1cccc(Cl)c1
?	CCS(=O)(=O)c1ccc(-c2csc(-c3ccccc3)n2)c(Cl)c1Cl
-4.6%	Cc1cc(C)n(CC(O)Cn2c3ccccc3c3ccccc32)c(=O)n1 (stereo not drawn)
3.1%	COc1cc(S(=O)(=O)N(CCc2ccccc2)Cc2cccs2)ccc1-n1cnnn1
?	COc1ccc(CNc2ncnc3ccc(-c4ccccc4CN(C)C)cc23)c(OC)c1
-4.6%	O=C(CSc1nc2ccccc2[nH]1)N1CCN(C(=O)c2ccco2)CC1
-7.5%	Cn1cnc2cc(OC(=O)c3ccccc3)ccc21

# Further compounds.
HPGD inh	canonical_smiles
-24.5%	O=C(COc1cccc2ccccc12)N1c2ccccc2CCc2ccccc21
?	Cc1cc(O)c(-c2cc(O)c(C)cc2O)cc1O
-22.9%	CCCCNC(=S)NNC(=O)c1ccoc1C
-28.5%	COc1ccc(CCN(Cc2cc3cc4c(cc3[nH]c2=O)OCO4)C(C)=O)cc1OC
-12.0%	O=C(CSc1nnc(-c2ccoc2)o1)N1CCOCC1
-7.0%	CCOC(=O)c1cnn(-c2ccccc2)c1NC(=O)c1ccccc1
2.82µM*	COC(=O)c1sc(NC(=O)CSc2nncs2)c(C(=O)OC)c1C
-8.9%	Cc1cc(=O)[nH]c(SCC(=O)c2c(N)n(C)c(=O)n(C)c2=O)n1
-5.4%&-7.2%	C[C@](N)(Cc1ccc(O)cc1)C(=O)O
-5.5%	O=C(CNC(=O)c1ccccc1C(=O)O)c1ccccc1
-22.2%	Cc1ccc(OCCN2C(=O)c3ccccc3C2=O)c([N+](=O)[O-])c1

# A few values from the list:
# In HPGD inh, `CCCCNC(=S)NNC(=O)c1ccoc1C` has the entry -22.9%
# In HPGD inh, `Cc1ccc(OCCN2C(=O)c3ccccc3C2=O)c([N+](=O)[O-])c1` has the entry -22.2%
